Screens from PubChem BioAssay.
KCNQ2 enhance: potentiators of rat KCNQ2 potassium channel | Potassium voltage-gated channel subfamily KQT member 2 (Rattus norvegicus), O88943 | CHO-K1 KCNQ2, FluxOR thallium flux fluorescence; active compounds read high | B-score at 10 µM | 310,000 tested, 0.54% active;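 active = fluorescence ratio B-score at least 3 SD of library B-scores, with initial fluorescence B-score within 3 SD, cut at about 5.3 in these data; same plate scores as AID 2156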;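 note: B-score of peak minus minimum over baseline fluorescence ratio after K+ and Tl+ stimulus; positive B-score means potentiation of KCNQ2 with more thallium influx and brighter signal; only the inactives scoring about 0 or higher are listed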
Target sequence (O88943 whole entry, looked up): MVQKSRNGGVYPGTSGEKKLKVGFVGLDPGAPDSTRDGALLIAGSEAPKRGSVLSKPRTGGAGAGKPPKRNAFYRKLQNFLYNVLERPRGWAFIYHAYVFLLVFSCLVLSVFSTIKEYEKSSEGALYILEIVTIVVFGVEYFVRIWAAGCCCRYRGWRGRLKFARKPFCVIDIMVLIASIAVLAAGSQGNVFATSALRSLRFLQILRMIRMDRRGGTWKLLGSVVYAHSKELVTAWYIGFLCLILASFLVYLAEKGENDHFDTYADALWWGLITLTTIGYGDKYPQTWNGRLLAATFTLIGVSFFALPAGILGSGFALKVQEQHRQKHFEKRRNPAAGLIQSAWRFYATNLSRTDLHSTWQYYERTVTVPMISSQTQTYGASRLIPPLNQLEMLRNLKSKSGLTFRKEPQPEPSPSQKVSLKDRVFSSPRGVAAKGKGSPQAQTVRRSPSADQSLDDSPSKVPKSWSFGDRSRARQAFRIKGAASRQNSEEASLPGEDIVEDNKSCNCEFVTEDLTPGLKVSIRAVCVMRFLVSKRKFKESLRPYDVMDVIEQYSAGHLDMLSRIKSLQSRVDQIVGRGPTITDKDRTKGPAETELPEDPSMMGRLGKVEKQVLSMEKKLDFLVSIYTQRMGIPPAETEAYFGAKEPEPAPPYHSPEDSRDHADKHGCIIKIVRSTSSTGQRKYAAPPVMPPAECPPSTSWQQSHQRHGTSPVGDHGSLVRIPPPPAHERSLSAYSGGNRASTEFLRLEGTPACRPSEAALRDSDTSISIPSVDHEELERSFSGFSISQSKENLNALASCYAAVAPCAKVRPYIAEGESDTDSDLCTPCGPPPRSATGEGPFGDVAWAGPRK
KCNQ2 enhance baseline: also measured in KCNQ2 enhance; calls as there; B-score; compound at 10 µM; measured here: initial fluorescence intensity artifact check;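 brightness before thallium and not channel activity; 0 = typical well and far values either way flag optical interference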
The depositor's hits bear a star. Some of the compounds tested; the hit share may differ from the screen's.

SMILES	KCNQ2 enhance	KCNQ2 enhance baseline
Cc1cc(C)cc(NC(=O)Cn2cc(C=O)c3ccccc32)c1	0.64	-1.2
CC(C)COCC(O)CCC(=O)NNC(=S)Nc1ccccc1 (configuration not stated)	0.25	-0.8
Cc1cc(OCc2cc(C(=O)N(C)CCc3cnn(C)c3)no2)cc(C)c1Cl	1.5	-0.03
CCN(CC)S(=O)(=O)c1ccc(Nc2ccc(-c3ccc4c(c3)OCCO4)nn2)cc1	1.5	-1.4
CC(C)(C)c1cc(C(=O)NNc2ccc(OC(F)(F)F)cc2)n(Cc2ccccc2)n1	0.5	-0.11
O=[N+]([O-])c1cc(/C=N/NC(=S)Nc2ccccc2Cl)ccc1Cl	1.4	0.48
O=C(O)CCC(=O)NNC(=O)c1ccc([N+](=O)[O-])cc1	1.4	0.4
Cc1nc(Nc2cccc(O)c2)c2oc3ccccc3c2n1	1.6	0.54
NC(N)=Nc1nc(CCN2C(=O)c3ccccc3C2=O)cs1	2.1	-2
O=C(NC(Cc1ccccc1)C(=O)O)/C(=C/c1ccc(Cl)cc1)NC(=O)c1ccccc1 (configuration not stated)	0.26	-0.02
COc1ccc(/C=N/NC(=O)C(C)Sc2ccccn2)cc1[N+](=O)[O-] (configuration not stated)	2.2	-1.4
CN(C)S(=O)(=O)c1ccc(C(=O)Nc2nnc(SCc3cccc4ccccc34)s2)cc1	0.46	0.44
COc1cc(/C=C2\NC(=S)N(C)C2=O)ccc1OCc1ccccc1F	0.5	-0.15
CC1=C(C(=O)OCc2ccccc2)C(c2ccc([N+](=O)[O-])cc2)NC(=O)N1CCCC(=O)O (configuration not stated)	1.1	0.93
COc1ccc(CC(=O)Nc2cccc(C(=O)NN3C(=O)c4ccccc4C3=O)c2C)cc1	1.1	-0.18
O=C(O)c1cccc(-c2ccc(/C=N/NC(=O)C3COc4ccccc4O3)o2)c1 (configuration not stated)	1.7	-0.91
O=C(Cn1c(=O)oc2ccccc21)Nc1ccc(Br)cc1	0.71	0.28
O=C(COc1ccc(Br)cc1)N1CCc2ccccc21	0.45	-1.8
CCN1CCN(C(c2ccccc2F)c2nnnn2Cc2ccc3c(c2)OCO3)CC1 (configuration not stated)	0.45	0.69
Cc1cc(C)nc(N2CCN(CC(=O)NCc3ccccc3)CC2)n1	0.69	0.57
CC(C)NCC(O)COCc1ccc(Cl)cc1 (configuration not stated)	0.35	0.93
CC(C)N1CCN(C(=O)c2ccc([N+](=O)[O-])cc2)CC1	0.93	0.72
CCCCc1ccc(Nc2ncnc3nc[nH]c23)cc1	0.93	0.23
COc1ccc(C(=O)NCC(=O)OCc2cccc(Br)c2)cc1	0.67	0.12
CNC(=O)C1(C(F)(F)F)C/C(=C\CCO)CCCO1 (configuration not stated)	0.35	-1.2
C=C1C(=O)C=C[C@]2(C)C[C@@H]3OC(=O)[C@](C)(O)[C@H]3C[C@@H]12	0.75	0.07
O=C(CNC(=O)c1ccco1)Nc1ccc(OC(F)F)cc1	0.4	1.2
CCN(CC)C(=O)CSc1nc2nc(C)cc(C)c2c(=O)[nH]1	0.01	0.5
CCOC(=O)C1=C(C)N(CCCC(=O)O)C(=O)NC1c1ccc(OC)cc1 (configuration not stated)	0.23	0.42
COc1ccc(CCNC(=O)CSc2cn(Cc3ccccc3)c3ccccc23)cc1OC	0.84	-0.77
C/C(=N\O)C(C)NC(=O)c1ccccc1 (configuration not stated)	0.61	1
Cc1ccc(C(=O)N/N=C(/CC(=O)c2cccs2)C(F)(F)F)cc1	13*	0.36*
CC(C)NC(=O)CN(C(=O)CCC(=O)Nc1nccs1)c1ccc2c(c1)OCO2	0.48	0.51
O=C(CSc1nnc(Cc2ccccc2)n1-c1ccccc1)N1CCOCC1	1.8	0.16
CCC(OC(=O)c1nsc(Cl)c1Cl)C(=O)NCCOC (configuration not stated)	0.6	0.64
Cc1noc(C)c1C(=O)Nc1nc(-c2ccc([N+](=O)[O-])cc2)cs1	0.87	-0.37

Single records (already shown). Values in the order: KCNQ2 enhance, KCNQ2 enhance baseline
CCN(CC)C(=O)CSc1nc2nc(C)cc(C)c2c(=O)[nH]1 is listed with 0.01, 0.5
Cc1ccc(C(=O)N/N=C(/CC(=O)c2cccs2)C(F)(F)F)cc1 is listed with 13*, 0.36*
CNC(=O)C1(C(F)(F)F)C/C(=C\CCO)CCCO1 (configuration not stated) is listed with 0.35, -1.2
COc1ccc(CCNC(=O)CSc2cn(Cc3ccccc3)c3ccccc23)cc1OC is listed with 0.84, -0.77
O=C(CSc1nnc(Cc2ccccc2)n1-c1ccccc1)N1CCOCC1 is listed with 1.8, 0.16

Further results follow.
SMILES	KCNQ2 enhance	KCNQ2 enhance baseline
CC(C)N(Cc1ccccc1)S(=O)(=O)N(C)C	0.39	0.93
Cc1cc(Nc2ccc(C)c(F)c2)n2ncnc2n1	0.98	-0.15
CCOc1ccccc1NC(=O)CCC(=O)O	0.01	-0.02
CCSc1ncc(Cl)c(C(=O)Nc2ccc(S(=O)(=O)Nc3onc(C)c3C)cc2)n1	1.4	0.71
Clc1ccc(-n2nnc(-c3cccnc3)n2)cc1Cl	0.94	1.4
CSc1ncc(Cl)c(C(=O)Nc2cccnc2)n1	0.81	-0.37
COc1ccc(Cc2nnc(NC(=O)C3CCCO3)s2)cc1OC (configuration not stated)	0.05	-0.72
Cc1cc(NC(=O)c2sc(Nc3ccc(F)c(Cl)c3)nc2N)no1	2.4	0.74
Cc1ccc(C(=O)NNc2c3ccccc3nc3ccccc23)cc1	0.84	0.85
CCOc1cc(/C=N/NC(=O)c2cccnc2)cc(Br)c1OCC(N)=O	0.02	0.12
O=C(Oc1cc(=O)oc2ccccc12)c1ccco1	1.6	1.4
COc1ccc(N(CC(=O)Nc2ccccc2OC)S(=O)(=O)c2ccc(NC(C)=O)cc2)cc1	0.03	-2.2
CS(=O)(=O)c1ccc(NC(=O)c2ccc3c(c2)S(=O)(=O)N=C2CCCCCN23)cc1	0.19	-0.4
Cc1ccc(S(=O)(=O)N/N=C/c2ccccc2O)cc1	0.13	0.26
CCOC(=O)C1=C(c2ccccc2)Nc2ncnn2C1c1cccc(O)c1 (configuration not stated)	0.03	2.1
CCOc1ccc(S(=O)(=O)N2CCCC(C(=O)NCc3cccnc3)C2)cc1Cl (configuration not stated)	0.14	-0.1
Cc1cc(C(=O)Nc2cc(C)on2)on1	0.99	1.4
COC(=O)c1noc(-c2ccc(C)cc2)n1	0.87	-0.29
CCc1nc2ccccc2n1CC(=O)N1CCN(Cc2ccccc2)CC1	2.2	0.77
CCn1c(CNc2ccc(C)cc2)nnc1SCC(N)=O	1.2	0.94
CN(C)c1ccc(C(C(=O)NCc2ccccc2)N(Cc2ccco2)C(=O)c2snc(C(N)=O)c2N)cc1 (configuration not stated)	1.8	-0.87
CN(C)CCNC(=O)c1c(CSc2ccc(Cl)cc2)noc1C(=O)NCc1ccccc1	1.5	0
COc1cc(/C=C/C(=O)O)cc(S(=O)(=O)Nc2ccccc2Cl)c1OC	1.2	-0.16
N#Cc1cnn(-c2ccccc2)c1N	2	-2.2

Some values from the results shown.
`COc1cc(/C=C/C(=O)O)cc(S(=O)(=O)Nc2ccccc2Cl)c1OC` | KCNQ2 enhance: 1.2
`CCc1nc2ccccc2n1CC(=O)N1CCN(Cc2ccccc2)CC1` | KCNQ2 enhance baseline: 0.77
`Cc1cc(C(=O)Nc2cc(C)on2)on1` | KCNQ2 enhance baseline: 1.4
`CCOc1ccc(S(=O)(=O)N2CCCC(C(=O)NCc3cccnc3)C2)cc1Cl` (configuration not stated) | KCNQ2 enhance baseline: -0.1
`Cc1ccc(S(=O)(=O)N/N=C/c2ccccc2O)cc1` | KCNQ2 enhance baseline: 0.26
`CN(C)CCNC(=O)c1c(CSc2ccc(Cl)cc2)noc1C(=O)NCc1ccccc1` | KCNQ2 enhance baseline: 0

The list goes on:
SMILES	KCNQ2 enhance	KCNQ2 enhance baseline
CCOCCCNC(=S)Nc1ccc2nc(N3CCCC3)cc(C)c2c1	1.1	-0.32
CCOC(=O)C1CCN(C2CC(=O)N(c3cccc(Cl)c3)C2=O)CC1 (configuration not stated)	0.97	1
COc1cc(CCC(=O)OCc2ccccc2C#N)cc(OC)c1OC	0.4	-0.31
COCCNC(=S)N/N=C/c1ccccc1C(=O)O	2.8	-1.7
O=C1CN(C(=O)c2cc3ccccc3o2)c2ccccc2N1	0.62	-1.4
CCOc1ccc(C(=O)COC(=O)c2cc(=O)[nH]c3ccccc23)cc1	0.17	-0.69
C=C(C)C(=O)Nc1ccc(NC(C)C)cc1	0.24	2.5
CCOC(=O)c1csc(NC(=O)c2ccc(OCC)cc2)n1	0.26	1.9
COCCN(C(=O)COc1ccccc1)c1nnc(-c2cccnc2)s1	0.37	-0.54
CCCCCCCCNC(C)C(O)c1ccc(SC(C)C)cc1 (configuration not stated)	6.8*	3.5*
COc1cccc(CNC(=O)C2CCN(C(=O)N3CC(C)Oc4ccccc43)CC2)c1 (configuration not stated)	1.4	-0.1
COc1ccccc1/C=C/CN1CCC(n2nccc2NC(=O)CCc2ccccc2)CC1	1.2	-0.86

Part of the list above, as comma-separated lines:
canonical_smiles,KCNQ2 enhance,KCNQ2 enhance baseline
COc1cc(CCC(=O)OCc2ccccc2C#N)cc(OC)c1OC,0.4,-0.31
COCCNC(=S)N/N=C/c1ccccc1C(=O)O,2.8,-1.7
O=C1CN(C(=O)c2cc3ccccc3o2)c2ccccc2N1,0.62,-1.4
CCOc1ccc(C(=O)COC(=O)c2cc(=O)[nH]c3ccccc23)cc1,0.17,-0.69
C=C(C)C(=O)Nc1ccc(NC(C)C)cc1,0.24,2.5
CCOC(=O)c1csc(NC(=O)c2ccc(OCC)cc2)n1,0.26,1.9
COCCN(C(=O)COc1ccccc1)c1nnc(-c2cccnc2)s1,0.37,-0.54

The list continues:
SMILES	KCNQ2 enhance	KCNQ2 enhance baseline
Cc1cccc(CCNS(=O)(=O)c2ccc(S(=O)(=O)N3CCCCC3)cc2)c1	0.47	1.9
Cc1ccc(C(CNS(=O)(=O)c2ccc([N+](=O)[O-])cc2)N2CCN(C)CC2)cc1 (configuration not stated)	0.47	0.7
CS(=O)(=O)Nc1ccc(C(=O)N2CCCCC2)cc1	1.8	-0.25
OCC1(CCOc2ccccc2)CCN(CCCn2cccn2)CC1	0.01	0.01
Cc1cccc(OCCCC(=O)Nc2nccs2)c1	1.1	-0.34
CCC(=O)Nc1ccc(C(=O)NNC(=O)Cc2ccccc2)cc1	0.9	0.72
CC(C)CNC(=O)COC(=O)c1ccc(Cl)c(S(=O)(=O)N2CCc3ccccc32)c1	0.58	0.24
O=C1CCc2cc(S(=O)(=O)NC(Cc3ccccc3)C(=O)NCC3CCCO3)ccc2N1 (configuration not stated)	0.04	-0.26
CC1(C)Cc2c(cnn2-c2ccccc2)C(=O)/C1=N\NC(=O)c1ccccc1N	0.7	1.5
CC(NC(=O)c1ccncc1)c1ccc(Cl)cc1Cl (configuration not stated)	0.96	-0.91
CCNC(=S)N/N=C/c1cc(C)n(-c2ccc(Cl)cc2)c1C	0.75	-1.1
CN(C(=O)COC(=O)c1cc2c(s1)CCCCC2)C1CCS(=O)(=O)C1 (configuration not stated)	0.38	-0.05
CC(=O)c1ccc(N(C(=O)CNC(=O)c2ccco2)C(C(=O)NC2CCCC2)c2cccnc2)cc1 (configuration not stated)	0.03	-0.12
Cc1cc(/C=N/n2cnnc2)c(C)n1-c1cccc(Cl)c1	1.7	0.12
CC1(C)CC(=O)CC(=NCC(=O)O)C1	1.2	-1.1
COc1ccc(CN2CCN(C(=O)CCC(=O)Nc3nnc(CC(C)C)s3)CC2)cc1F	0.55	0.61
O=C(CSc1oc(-c2ccccc2)nc1S(=O)(=O)c1ccccc1)NCC1CCCO1 (configuration not stated)	0.18	0.87
O=C(COc1ccc([N+](=O)[O-])cc1)N1CCN(c2nnc(-c3ccccc3)c3ccccc23)CC1	0.48	-0.13
CC(NC(=O)c1cccc(C(F)(F)F)c1)C1CCCO1 (configuration not stated)	1.4	-1.6
C=CCOc1ccc(/C=C/C(=O)OCC(=O)NCc2ccco2)cc1	0.38	0.7
NC(C(=O)O)C1CC(Cl)=NO1 (configuration not stated)	0.05	-0.22
CCc1ccccc1NC(=S)N(CCCN1CCN(C)CC1)Cc1cccs1	0.08	1.1
O=C(CSc1ccc(-c2ccncc2)nn1)c1ccccc1	0.81	-1.6
O=C(O)c1[nH]c2ccccc2c1CC(=O)N1CCOCC1	1.4	-0.01
Cc1ccn2c(C(=O)N/N=C/c3ccc(CNC(=O)C(=O)Nc4ccc(C)c(C)c4)o3)c(C)nc2c1	0.52	0.45
O=C(COC(=O)c1ccc(OC(F)F)cc1)NCCCN1CCCC1=O	1.3	-0.45
COc1cc(CC(=O)OCC(=O)Nc2ccc3c(c2)OCCO3)cc(OC)c1OC	0.89	-0.16
Cc1cc(Cl)c(S(=O)(=O)N2CCN(c3ccc(F)cc3)CC2)cc1OCC(=O)NC1CCCCC1	16*	1.2*
COc1ccc(NC(=O)COC(=O)/C=C/c2ccccc2[N+](=O)[O-])cc1	0.53	-1.2
COc1ccc(NC(=O)C2CCN(S(=O)(=O)c3cccc4nonc34)CC2)cc1OC	1.3	1
OCCOCCn1c(-c2ccccc2)nc(=S)c2c1CCCC2	1.7	-0.1
Clc1cccc(OCCN2CCNCC2)c1	0.64	-0.67
COc1ccccc1CNC(=O)C1CCCN(S(=O)(=O)c2cccs2)C1 (configuration not stated)	0.51	-0.1
Cc1cc(C)n(CC(O)COCc2ccco2)n1 (configuration not stated)	1.3	-1.6
COc1ccc(N(C(=O)Cc2cccs2)C2C=CS(=O)(=O)C2)cc1 (configuration not stated)	0.36	-0.67
COc1cccc(-c2coc3c(C)c4oc(=O)c(CCC(=O)O)c(C)c4cc23)c1	0.47	-0.78
O=S(=O)(Nc1cccc2cccnc12)c1ccccc1	2.8	0.03
CCOC(=O)c1ccc(NC2c3ccccc3C(=O)N2c2ccccn2)cc1 (configuration not stated)	0.23	0.77
Cc1ccccc1CC1(CO)CCCN(C(=O)c2ccccc2N(C)C)C1 (configuration not stated)	0.42	0.61
CN(C)c1ccc(C(=O)OCC(=O)NCCCc2ccccc2)cc1	0.76	-2.4
